Bioassay records deposited in PubChem by National Center for Advancing Translational Sciences (NCATS).
hNpr1 antagonist – human Npr1 receptor antagonism | AID 1347048 | P16066 | HEK293 hNpr1 GloSensor cGMP, ANP-stimulated luminescence | 76,000 compounds, 1.6% hits | Potency, µM (series often up to 46.3 µM), without a hit: at the top dose activity change, negative = inhibition, most hits filed as inhibitors; active = well fitted inhibition curve with a large enough effect; inconclusive = small, poorly fitted or top-dose-only effect; inactive = no such curve, though single readings can be large or run the other way;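 note: nearly all actives have a fitted effect of over 60% in size; nearly all hits also lower the signal before the agonist is added; a reference antagonist and vehicle were the controls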
Target sequence (P16066 whole entry, looked up): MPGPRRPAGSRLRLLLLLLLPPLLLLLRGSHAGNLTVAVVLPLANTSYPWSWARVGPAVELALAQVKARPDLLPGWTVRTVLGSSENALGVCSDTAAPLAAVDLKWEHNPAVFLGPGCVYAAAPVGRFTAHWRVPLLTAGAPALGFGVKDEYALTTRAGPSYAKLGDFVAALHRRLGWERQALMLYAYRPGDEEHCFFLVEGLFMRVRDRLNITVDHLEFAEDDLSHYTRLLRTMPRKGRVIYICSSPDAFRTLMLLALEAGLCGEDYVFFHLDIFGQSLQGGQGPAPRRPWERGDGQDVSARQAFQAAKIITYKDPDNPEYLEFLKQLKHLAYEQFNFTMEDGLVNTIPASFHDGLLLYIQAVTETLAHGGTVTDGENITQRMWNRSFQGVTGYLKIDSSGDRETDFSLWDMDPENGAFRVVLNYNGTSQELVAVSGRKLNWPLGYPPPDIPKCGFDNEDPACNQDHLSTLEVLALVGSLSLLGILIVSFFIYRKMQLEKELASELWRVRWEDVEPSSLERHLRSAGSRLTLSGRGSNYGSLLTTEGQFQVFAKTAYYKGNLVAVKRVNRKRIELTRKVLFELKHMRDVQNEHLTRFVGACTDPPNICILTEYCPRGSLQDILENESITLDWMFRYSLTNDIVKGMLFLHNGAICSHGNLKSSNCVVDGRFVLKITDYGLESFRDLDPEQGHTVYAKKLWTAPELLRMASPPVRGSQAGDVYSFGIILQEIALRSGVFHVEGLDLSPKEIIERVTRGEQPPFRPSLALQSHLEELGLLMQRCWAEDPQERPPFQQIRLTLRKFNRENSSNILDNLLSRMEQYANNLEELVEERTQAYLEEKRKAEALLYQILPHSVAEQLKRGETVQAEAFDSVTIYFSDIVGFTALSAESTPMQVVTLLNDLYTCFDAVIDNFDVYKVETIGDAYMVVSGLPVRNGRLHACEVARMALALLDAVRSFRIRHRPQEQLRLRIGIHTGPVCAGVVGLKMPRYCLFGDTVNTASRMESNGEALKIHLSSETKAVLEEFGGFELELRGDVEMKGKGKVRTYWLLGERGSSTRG
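HEK293 cells stably expressing human Npr1 and cGMP GloSensor pGS-40F, loaded 2 h with 2% GloSensor reagent, given compound 30 min at room temperature. Luminescence read before and 20 min after 0.1 nM hNppA.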
Starred values were filed as active, the others as inactive; u = inconclusive; & = joins results of further samples; [ ] = remark or other dose. % is set by controls: 0 for no effect and ±100 for the full control effect; potency is the fitted concentration of half-maximal effect. The list is partial. The share of hits here may be higher or lower than overall.

Sample of the layout, two compounds:
SMILES | hNpr1 antagonist
COC(=O)[C@@H](CC(C)C)NC(=O)[C@@H]1C[C@@H](n2nnc(C(N)=O)c2C(N)=O)CCN1C(=O)c1cccn1C | -1.2%
CSc1cccc(NC(=O)O[C@@H]2CC[C@]3(C)C(CC[C@@H](O)[C@H]3CC(=O)N3CC[C@H](NC(C)=O)C3)[C@]2(C)CO)c1 (some centres not stated) | 5.9%

Main list, from the start:
SMILES | hNpr1 antagonist
COC(=O)[C@@H](CC(C)C)NC(=O)[C@@H]1C[C@@H](n2nnc(C(N)=O)c2C(N)=O)CCN1C(=O)c1cccn1C | -1.2%
CSc1cccc(NC(=O)O[C@@H]2CC[C@]3(C)C(CC[C@@H](O)[C@H]3CC(=O)N3CC[C@H](NC(C)=O)C3)[C@]2(C)CO)c1 (some centres not stated) | 5.9%
S=C(NC1CCCCC1)N[C@H]1CO[C@H]2[C@@H]1OC[C@@H]2n1nnnc1-c1ccc2c(c1)OCO2 | u
O=C(N[C@H]1CO[C@H]2[C@@H]1OC[C@@H]2n1nnnc1Oc1ccc(-n2cncn2)cc1)N1CCOCC1 | -2.2%
Cc1cc(C)cc(NC(=O)c2cc3n(n2)CC(c2ccc4c(c2)OCO4)OC3)c1 (configuration not stated) | -19.2%
CN(C)C[C@@H]1CN(c2ncccn2)C[C@H]1NC(=O)Cc1ccsc1 | -3.9%
O=C(NC1CC(=O)N(CCCc2ccccc2)C1)c1ccoc1 (configuration not stated) | 0.4%
O=C1N(CCc2ccccc2)CCOC12CCN(Cc1ccc(F)cc1)CC2 | -4.3%[70.6 µM]
CNCC(=O)N1C[C@@H](COc2cccnc2)[C@H](c2ccccn2)C1 | 2.3%
O=C(NCCc1ccccc1)c1cnc2n1CCN(CCc1ccccc1)CC2 | -0.2%[70.6 µM]
CCN(CC)c1ccc(C(=O)NCc2nnc3c(-c4nc(C(C)C)no4)cccn23)cc1 | -4.4%
CN1CCN([C@H]2CCN(Cc3ccc4occc4c3)C[C@H]2CCC(=O)O)CC1 | 3.3%
Cc1ccc(NC(=O)NC[C@H]2O[C@@H](CC(=O)NCCN3CCOCC3)[C@H](O)[C@@H]2O)cc1 | 1.3%
COc1ccccc1CNC(=O)c1c(OCC(C)C)cc(=O)n2c1CCCCC2 | 3.5%
O=C(c1ccc[nH]c1=O)N1CCC2(CC1)NC(=O)N(Cc1ccc(Cl)cc1)C2=O | 7.9%
O=C(c1n[nH]c2ccccc12)N1CC2CC(C1)[C@H]1CCCC(=O)N1C2 (some centres not stated) | 1.3%
CC(C)NC(=O)N1CC[C@@H](CC(=O)O)[C@@H](CC2=NCCc3cc(F)ccc32)C1 | -0.6%[70.6 µM]
CC(=O)N1CCC(C(=O)NC2CCCN(c3cc(-c4ccc(Cl)cc4)[nH]n3)C2)CC1 (configuration not stated) | -6.3%
COCCNC(=O)C[C@@H]1C[C@H]2O[C@H](CN)[C@@H](O)[C@H]2O1 | -0.6%[70.6 µM]
CNC(=O)c1cccc(-c2cnc(Nc3ccc4c(c3)OCCO4)c3c2CCO3)c1 | u
O=C(Cc1ccc(F)cc1)N1CCC2(CC1)CCN(CCc1ccccc1)c1ccccc1O2 | 21.0%
COc1ccc(-c2noc(-c3cccn3CC(=O)Nc3cc(F)ccc3Cl)n2)cc1F | 3.6%
O=C(Nc1ccccc1)[C@@H]1C[C@@H](c2ccc(F)cc2)N([S+](=O)([O-])c2ccccc2)C1 | -16.7%[70.6 µM]
O=c1cc(-c2cccnc2)oc2c(-c3cccc(CO)c3)nccc12 | 2.3%[70.6 µM]
COc1ccccc1CC(=O)N1CCCc2ncc(C(=O)N3CCC(OC)CC3)cc21 | -1.7%[70.6 µM]

Four entries from above, with values ahead of the structure:
| hNpr1 antagonist | SMILES |
| --- | --- |
| 2.3% | CNCC(=O)N1C[C@@H](COc2cccnc2)[C@H](c2ccccn2)C1 |
| 1.3% | O=C(c1n[nH]c2ccccc12)N1CC2CC(C1)[C@H]1CCCC(=O)N1C2 (some centres not stated) |
| 3.3% | CN1CCN([C@H]2CCN(Cc3ccc4occc4c3)C[C@H]2CCC(=O)O)CC1 |
| 3.6% | COc1ccc(-c2noc(-c3cccn3CC(=O)Nc3cc(F)ccc3Cl)n2)cc1F |

(continued)
SMILES | hNpr1 antagonist
CCOCCn1cnc(-c2ccccc2)c1-c1ccccc1OCC(N)=O | -3.3%
OCCNc1ncnc2ccc(-c3cccc(O)c3)cc12 | 5.2%
O=C(NCc1ccccc1)c1ccc2c(c1)OCCN(C1CCC1)C2 | -6.9%[70.6 µM]
CNC(=O)[C@@H]1CN(S(=O)(=O)c2cccs2)C[C@H]1c1nc(C)no1 | 2.8%
Cc1onc(C(=O)NCCc2noc(-c3ccncc3)n2)c1Cn1cc(Cl)cn1 | -3.2%
Cc1ccc2c(C(=O)NCc3cc(F)cc(F)c3)cc(NC(=O)C(C)C)cc2n1 | -1.3%
Cc1ccc(C(=O)N2C(C(=O)NCc3ccccc3)COC23CCN(C(=O)C2CC2)CC3)cc1 (configuration not stated) | -2.1%
CC[C@H]1CN(C(C)=O)CC[C@H]1CC(=O)NC1CC1 | 0.6%[70.6 µM]
Cn1ncc(N2CCC(NC(=O)c3ccsc3)CC2)cc1=O | 4.0%
CSc1cccc(NC(=O)Cn2nc3n(c2=O)CCCC3)c1 | -0.5%
c1ccc(-c2nc(C3CC3)no2)c(OC2CCNC2)c1 (configuration not stated) | 1.5%
Cc1noc(C)c1-c1cnc(Nc2cc(F)cc(N3CCOCC3)c2)c2c1CCO2 | -14.9%[70.6 µM]
CC(C)CCCC1CN(C(=O)c2c(O)cccc2O)CCO1 (configuration not stated) | -5.1%
O=S(=O)(NC[C@H]1Cn2ccnc2CO1)c1ccccc1 | 1.7%[70.6 µM]
COc1cccc(CNC(=O)C2Cn3cccc3C(=O)N2Cc2cccnc2)c1 (configuration not stated) | 0.2%
COCCNC(=O)c1c(C)sc2ccn(Cc3ccc(F)cc3)c(=O)c12 | 5.7%
O=C(C1CCCCC1)N1CCC(N2C(=O)C(O)C23CCCCC3)CC1 (configuration not stated) | -2.7%
Cn1ncc(N2CCN(CC3(O)CCCNC3)CC2)cc1=O (configuration not stated) | 1.2%
CCC1(C(=O)Nc2cccc(OC)c2)CCCCC(=O)N1 (configuration not stated) | -2.8%
Cc1cnc(C2CCN(C(=O)NC(C)C)C2)n1C(C)C (configuration not stated) | 7.2%
O=C(NCc1ccncc1)c1ccc2c(c1)OCCN(c1ccccc1)C2 | u
CC(C)n1cc(C(=O)NCc2cccnc2Oc2ccc(F)cc2F)cn1 | 4.3%
CCOc1ccccc1NC(=O)Cn1c(-c2cccc(Cl)c2)nc(C)c(CCO)c1=O | -15.0%
O=C(c1ccc2c(c1)OCO2)N1CCCN(C(=O)C2CC2)c2ccccc21 | -5.7%
O=C(Nc1cccc2ccccc12)N[C@H]1CO[C@H]2[C@@H]1OC[C@@H]2n1nnnc1-c1ccc2c(c1)OCO2 | 1.3%
(continued)
SMILES | hNpr1 antagonist
CCN1C(=O)C2CC3(CCN(C(=O)CCc4ccccc4)CC3)CN2C1=O (configuration not stated) | -11.1%
O=C(C1CC(=O)N(c2n[nH]c3ccccc23)C1)N1CCC(c2noc3cc(F)ccc23)CC1 (configuration not stated) | u
Cn1cnc(C(=O)N2CCCCCCn3c(nnc3-c3ccc(F)cc3)CC2)c1 | -4.5%
CCN(CC)C(=O)C(NC(=O)c1cccc(C)c1)C1CCN(C(=O)C2CC2)CC1 (configuration not stated) | -0.9%
CN1CC(=O)N(c2ccccc2)Cc2c(NCC(C)(C)C)ncnc21 | -1.9%[70.6 µM]
O=C(CC1CCOC2(CCN(S(=O)(=O)c3ccccc3)CC2)C1)N1CCOCC1 (configuration not stated) | -1.0%
Cn1nc(C2CCN(C(=O)C3CCCO3)CC2)c2c1CCOC2 (configuration not stated) | 0.9%
Cc1noc([C@@H]2CC(F)(F)CN2C(=O)CCc2c(C)noc2C)n1 | 7.4%
O=C(C[C@@H]1CCNC[C@@H]1Cc1cc(CSc2ccccc2)on1)NCc1ccc(F)cc1 | -3.4%
CCn1cc(CN2C[C@@H](COC)[C@H](c3nc(COC)no3)C2)cn1 | -1.3%
Cc1ccc(CN2CCc3oc(C)c(C(=O)NCCCN4CCN(C)CC4)c3C2)cc1 | -12.0%
Cc1ccc(NC(=O)c2cc3n(n2)CC(c2ccc4c(c2)OCO4)OC3)cc1Cl (configuration not stated) | u
COc1ccc(-c2nc(C)nc3c2CN([S+](=O)([O-])c2ccc(C)cc2)CC3)cc1 | -0.2%
CC(C)CCN1CCC2(C1)NC(=O)c1ccccc1CO2 (configuration not stated) | 0.0%&15.6%[70.6 µM]
Cc1noc(-c2cn(C3CCN(C(=O)c4ccc5c(c4)OCO5)C3)nn2)n1 (configuration not stated) | -6.2%
COc1ccc(-c2cnc([C@@H]3COCCN3)[nH]2)cc1 | 6.4%[70.6 µM]
O=C(NCCc1cccs1)c1ccc(Cn2ccn3nc4c(c3c2=O)CCCC4)cc1 | -23.0%
Cc1ccc(C(=O)NCc2cccnc2Oc2ccccc2)cn1 | 6.4%
Cc1ccc(-c2nccc(N3CCC(O)C3)n2)c(C)c1 (configuration not stated) | 4.4%
O=C1OC2(CCNCC2)CN1Cc1cc(C(F)(F)F)ccc1F | 7.1%
O=C(c1cn[nH]c1-c1ccccc1)N1CC2CC(C1)[C@H]1CCCC(=O)N1C2 (some centres not stated) | 0.2%
COCCNC(=O)C(C)[C@@H]1CC[C@@]2(C)CC[C@H](NC(=O)c3cnccn3)[C@@H](C)[C@@H]2[C@H]1O (some centres not stated) | 0.8%[70.6 µM]
Cc1cccc(CC(=O)N2CCCCC2c2nc(C3CC3)n[nH]2)c1 (configuration not stated) | -11.2%
Cc1nc2c(c(-c3ccc(Cl)cc3)n1)CCN(C(=O)c1cccc(Cl)c1)CC2 | u
CN(CCc1ccccc1)C(=O)c1cc(-c2ccc[nH]2)n[nH]1 | 14.8%
Continuation.
SMILES | hNpr1 antagonist
Cc1cccc(C(=O)N2C(C(=O)NCc3ccccc3)COC23CCN(C(=O)CC(C)(C)C)CC3)c1 (configuration not stated) | 4.2%
COCC(=O)N1CC[C@@H](CC(=O)O)[C@@H](CCN2CCC(n3c(=O)[nH]c4ccccc43)CC2)C1 | 3.4%
Cc1ccc(C2=NC3(CCN(C(=O)c4ccco4)CC3)ON2)cc1 | -12.9%
CCOC(=O)c1ccc(NC(=O)N2Cc3[nH]cnc3C[C@H]2c2nc(-c3cccc(C)c3)no2)cc1 | -29.9%
CN1C(=O)CCCCC1C(=O)NC1CCCCC1 (configuration not stated) | 2.4%
COc1ccc(S(=O)(=O)N[C@H]2[C@H](O)[C@H](O)C[C@@H]2c2ccc(C(F)(F)F)cc2)cc1 | -0.6%[70.6 µM]
CC(C)CN1CCNC(=O)C1CC(=O)NCc1cc(Cl)ccc1Cl (configuration not stated) | 0.0%
O=C([C@@H]1C[C@H](F)CN1S(=O)(=O)c1cccc(F)c1)N1CCc2ccccc2C1 | 0.6%
CNC(=O)[C@@H]1C[C@H](Oc2ccccc2)CN1C(=O)CCc1ccccc1 | 2.7%
CC(=O)N1CCN(C(=O)c2cccs2)[C@H](C(=O)N[C@@H](CC2CCCCC2)C(N)=O)C1 | 3.9%[70.6 µM]
CC1=C[C@@H](CNC(=O)C2CCCCC2)[C@H](C(C)C)C[C@H]1CC(=O)NCc1cccnc1 | -13.2%[70.6 µM]
Cc1noc(-c2cccs2)c1C(=O)NCCC(c1ccccc1)c1ccccc1 | -4.6%
COc1ccc(Cc2nc3nccc(-c4cccs4)n3n2)cc1 | 0.4%
O=C(NCc1ccccc1)C1CCC(=O)N1C1CCN(C(=O)c2ccc(F)cc2F)CC1 (configuration not stated) | 1.7%
COc1cccc(-c2ccc(NC(=O)C3CCCN(Cc4cc(C(C)C)n[nH]4)C3)cc2)c1 (configuration not stated) | u
COc1ccc(CNC(=O)N2CCC(OC3CCN(S(C)(=O)=O)CC3)CC2)cc1 | -7.3%
O=C(NCCc1nc(-c2cccnc2)n[nH]1)C1CNCCO1 (configuration not stated) | 7.1%
Cn1cc(CN2C[C@@H](F)[C@@H](OCc3nc4ccccc4n3C)C2)c2ccccc21 | u
COCCCNC(=O)C(NC(=O)c1ccccc1C)C1CCN(C(=O)c2ccc(F)cc2)CC1 (configuration not stated) | -3.0%
CCOc1ccc(-c2cc3c(=O)n(CCNC(=O)c4cccc5[nH]ccc45)ccn3n2)cc1 | -26.6%
Cc1ccccc1CC(=O)N1CC(F)(F)C[C@H]1c1nnc(C2CC2)o1 | 1.8%
CCS(=O)(=O)N1CCCCCCN(C)C(=O)CC1 | 6.9%
C[C@@H]1C(=O)O[C@H]2[C@H]1CC[C@@]1(C)Cc3sc(NCCc4ccccn4)nc3[C@@H](C)[C@H]21 | u
COc1ccc(-c2nn(-c3ccccc3)cc2CN2CCN(C)C(C)C2)c(F)c1 (configuration not stated) | 6.0%
COc1ccccc1-c1nc2nccc(-c3ccco3)n2n1 | 3.5%
Next section
SMILES | hNpr1 antagonist
Cc1ccc(NC(=O)Nc2ccc(C)n(CC(=O)Nc3ccccc3)c2=O)cc1 | 0.4%
COC(=O)c1ccc(CN2C(=O)[C@@H]3C[C@@H](O)CN3C3(CN(Cc4cccc(F)c4)C3)C2=O)cc1 | u
O=C(NC1CCCc2c1[nH]c1c(Cl)cccc21)c1ccncc1 (configuration not stated) | -15.2%
Cc1ccc(NC(=O)c2cc(-c3ccc[nH]3)n[nH]2)cc1F | 4.9%
CN(Cc1cc(C2CC2)on1)Cc1nnc(C2CC(N)C2)n1C1CC1 (configuration not stated) | -1.9%
O=C(NC1CCCc2c1[nH]c1c(Cl)cccc21)c1ccco1 (configuration not stated) | -9.0%
COc1ccc(CNC(=O)COc2ccc(-c3nnc4n3CCCC4)cc2)cc1 | -4.4%
CC1(C)[C@H](Cc2cc(CN3CCCCC3)on2)C[C@@H]1NCc1ccccn1 | -3.9%[70.6 µM]
COCCN1CC(CO)C2(CCN(Cc3c[nH]c4ccccc34)CC2)C1 (configuration not stated) | -0.5%
